Sa RN4220 lethal: growth inhibition of S. aureus RN4220, primary screen, OD600. 16 h. inhibition, % (concentration not given with the values). 330,000 compounds, 0.33% hits. AID 1259311, 2017;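 active = z-score of -3 or lower and OD600 up to 0.18 on both plates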;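 also: plate controls were untreated cells for no effect and reference antibiotic for full effect; stock transfer was 100 nL into about 80 µL; one replicate is shown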
Sa ugtP lethal: growth inhibition of ugtP-null S. aureus, primary screen, RN4220 ugtP deletion, OD600; 16 h; some inactives read as strong as hits; growth inhibition, % (test concentration not listed); 330,000 compounds, 0.54% hits; AID 1259309, 2017;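 active = z-score under -3 and OD600 up to 0.15 on both plates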;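 also: plate controls were untreated wells for no effect and antibiotic for full effect; wells of about 80 µL received 100 nL stock; the first replicate is given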
Bead autofluor: flagged as autofluorescent in microsphere protease counterscreen. fluorescence intensity (no concentration beside the values). 360,000 compounds, 3.1% hits. compound autofluorescence counterscreen, microsphere flow cytometry; hits give high values. AID 624483;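 active = at least 3 SD above the mean of all compounds, about 16000 in these data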;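 also: 100 nL of 1 mM stock went into each well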
BJeLR lethal: MLPCN primary cell-based screen for lethality selective to Ras in HRASV12 cells; inhibition, % (test concentration not listed); 300,000 compounds, 0.17% hits; BJeLR (HRASV12) viability, CellTiter-Glo ATP luminescence, 48 h; reference of the scale not given here;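 active = replicate mean above 50%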;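 also: 50 nL library stock added to about 25 µL; numbers are from one replicate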
Mtb hypoxia inh: PubChem AID 1159583. fluorescence inhibition, % (no concentration beside the values). 300,000 compounds, 0.1% hits. M. tuberculosis hypoxia-regulated fluorescent reporter, fluorescence;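 active = 35 to 45% if threefold the growth effect, above 45% if 1.5-fold the growth effect; inactive = the rest, general growth blockers included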;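 also: wells of about 50 µL received 100 nL stock; 0% = vehicle wells and 100% = reference inhibitor wells; whole bacteria with a GFP reporter of the hypoxia response; strong numbers were not always called active; many hits fall short of the cut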
PrP 5UTR inh: inhibition of PrP 5' UTR reporter expression; AID 488862, 2010; inhibition, % (no concentration beside the values); 340,000 compounds, 0.35% hits; cell-based PrP 5' UTR mRNA reporter, plate reader;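 active = every replicate at 50% or more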;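 also: 0 = median of the neutral control wells; tested in H4 reporter cells; numbers are from one replicate; inactives centre near -14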
Mtb hypoxia inh growth: second read-out of Mtb hypoxia inh, no call of its own (marks repeat the call); growth inhibition, %; measured here: M. tuberculosis growth (absorbance);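 0% = vehicle and 100% = reference antibiotic; read after six days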
An asterisk follows results filed as active; x = no result given.

nr	SMILES	Sa RN4220 lethal	Sa ugtP lethal	Bead autofluor	BJeLR lethal	Mtb hypoxia inh	Mtb hypoxia inh growth	PrP 5UTR inh
1	Cc1ccc(/C=N\NC(=O)c2cc([N+](=O)[O-])cc([N+](=O)[O-])c2)o1	x	x	2493	6.7	x	x	-24.3
2	CCOc1cccc(C(=O)Nc2ccc3ccccc3c2)c1	-1.8	0.8	3846	3.6	11.7	3.5	-22.1
3	CCN(CC)c1ccc2c(Cl)c(Br)c(=O)oc2c1	14.9	6.5	6282	2.1	17.0	11.0	3.4
4	COc1ccccc1N1CCN(C(=O)c2cccc3c(=O)c(C)c(-c4ccccc4)oc23)CC1	5.0	-2.6	2498	-4.7	0.6	8.7	-7.2
5	COc1ccc(NC(=O)c2ccc(NC(=O)CN(C)CC(=O)Nc3c(C)cccc3C)cc2)cc1	2.9	2.6	5788	-7.4	-3.8	7.3	-18.3
6	CC(=O)Nc1cccc(-n2c(=O)n(Cc3ccccc3)c(=O)c3[nH]cnc32)c1	2.3	13.8	2835	-1.0	0.1	-0.1	-8.4
7	COc1ccc(C=NNC(=O)c2ccc(NC(=O)c3ccccc3Br)cc2)cc1	-3.7	-3.5	x	x	1.9	-3.3	x
8	CC1(C)CC(=O)N(c2ccc(Cl)cc2Cl)C(=O)C1	1.0	14.0	3980	-0.6	15.3	-0.6	-20.5
9	CCc1ccc(C(=O)N2CCCC2)s1	1.5	4.0	16597*	-1.3	x	x	-18.1
10	Cc1ncn(-c2ccccc2)c1-c1ccccc1	-0.2	-2.5	4764	-6.2	4.4	2.2	-27.9
11	O=S(=O)(Nc1ccon1)c1ccc(Br)cc1	8.2	10.0	5238	1.7	-0.3	-7.8	-30.9
12	Cc1ccc2cc(C(c3nnnn3C3CCCC3)N3CCN(c4ccccc4)CC3)c(=O)[nH]c2c1 (stereo not given)	11.3	-13.4	9107	-0.1	8.2	7.9	-34.0
13	Cc1nc2c(-c3ccc(F)cc3)c(C)nn2c(C)c1CCC(=O)NCc1ccco1	0.3	7.0	5411	6.8	0.3	-4.0	-13.6
14	COc1ccc(/C=C(/C#N)c2cccnc2)cc1OC	x	x	6072	-11.0	x	x	-6.6
15	O=C(NCC1CCCCC1)c1ccc(F)c(S(=O)(=O)N2CCOCC2)c1	-1.9	4.8	4262	x	22.3	7.0	-27.4
16	COc1cccc(C#Cc2c(CO)[nH]c3ccccc23)c1	0.4	-18.5	3079	x	1.8	13.0	-14.3
17	COc1ccc(OC)c(/C=C/C(=O)OCC(=O)NCc2ccccc2)c1	4.8	1.5	3920	x	11.2	6.1	-9.1
18	COc1ccc(NS(=O)(=O)c2cccc(C(=O)N(C)Cc3cccs3)c2)cc1	-1.7	-3.3	6553	0.0	-6.7	3.9	-5.5
19	Cc1ccccc1OCC(=O)Nc1nnc(C2CCCCC2)s1	-3.7	-2.4	2965	8.5	-8.0	4.0	-20.3
20	O=[N+]([O-])c1ccc(N/N=C/c2cn(Cc3ccc(F)cc3)c3ccccc23)nc1	x	x	2490	-12.4	x	x	-31.1
21	O=c1[nH][nH]c(-c2ccccc2O)c1C(C[N+](=O)[O-])c1ccc(Br)cc1 (stereo not given)	28.3	1.5	8776	-1.7	10.0	14.3	-1.4
22	C=CCNC(=S)Nc1cccc(NC(=S)NCC=C)c1	2.0	2.5	2207	-15.3	-2.5	1.8	-17.3
23	COc1ccc(-n2cnnc2SCC(=O)Nc2ccc(C(N)=O)cc2)cc1	1.5	3.3	3898	2.3	-6.1	5.6	-16.2
24	CC(=NOC(=O)c1ccc(F)cc1)c1sc(-c2ccc(Cl)cc2)nc1C	2.0	3.8	x	x	4.0	-0.8	x
25	COC(=O)c1ccc(C(=O)OC)c(NC(=O)CSCC(=O)O)c1	3.1	2.2	3499	3.7	-3.5	2.6	-23.8
26	CCCCOc1[nH]c2nc(-c3ccco3)n(Cc3ccco3)c(=N)c2c1C#N	2.3	-5.1	2873	5.2	x	x	-12.6
27	Cc1ccc(-c2cc(C(=O)NCCCN3CCOCC3)c3ccccc3n2)cc1C	-0.9	1.4	5818	6.5	12.4	4.8	-19.3
28	C[C@@H](NC(=O)c1coc(=O)c(Br)c1)c1ccccc1	x	x	3248	14.3	x	x	-44.6
29	CC(C)CNS(=O)(=O)c1cc(C(=O)O)c(Cl)cc1Cl	3.6	8.4	4687	0.3	10.3	12.6	-24.3
30	Cc1c(O)ccc(C=NNc2nc(-c3cccnc3)nc3ccccc23)c1O	12.8	9.1	x	x	4.8	-0.3	x
31	Cc1ccc(C(=O)NC(C)C2CCCO2)o1 (stereo not given)	3.6	2.2	6076	-3.9	9.3	3.9	-9.8
32	Cc1ccc(NC(=O)C2CC(=O)n3c(nc4ccccc43)N2)cc1Cl (stereo not given)	0.5	6.3	3923	-3.3	4.1	4.3	-23.6
33	CCOC(=O)N1CCN(c2cccc(C)c2C)CC1	6.8	13.2	11310	3.3	14.7	12.9	-22.8
34	Cc1cc(=O)c(C(=O)O)nn1-c1ccccc1[N+](=O)[O-]	4.1	6.0	4401	1.6	9.0	2.1	-6.6
35	CCN(CC)c1ccc(NC(=S)NC(=O)C2CCC2)cc1	3.8	14.2	6073	-10.1	15.3	3.9	-33.2
36	CC1=CC(=O)N(c2cccc(C(F)(F)F)c2)C1c1ccc(Cl)cc1 (stereo not given)	10.9	-1.2	23466*	4.2	6.0	8.6	-24.9
37	NS(=O)(=O)c1ccc(NC(=O)COC(=O)C2CCCCC2)cc1	3.0	9.1	1987	-9.6	14.4	1.8	-2.0
38	Brc1ccc(Sc2cnc3ccccc3n2)cc1	-13.2	21.2	3386	-12.8	11.3	7.5	-40.9
39	Cc1ccccc1C(=O)c1cccn1CC(=O)NC1CCCC(C)C1C (stereo not given)	-2.3	5.5	5391	6.8	0.5	7.6	-6.8
40	Cn1c(SCCN2CCCC2)nnc1C1CCN(S(=O)(=O)c2cccc(F)c2)CC1	-3.3	0.4	3565	0.5	-12.2	-1.3	-27.0
41	CCOC(=O)Cc1csc(NC(=O)CSc2nnnn2-c2ccc(CC)cc2)n1	-1.8	-2.5	2382	-0.1	1.0	4.0	-16.5
42	CC(O)c1nc2ccccc2n1C1CCCCC1 (stereo not given)	3.2	6.2	6691	0.7	9.1	6.0	-19.3
43	O=C(O)CCN1C(=O)/C(=C\c2cccc(Oc3ccccc3)c2)SC1=S	-3.0	9.8	3732	-13.8	16.0	2.3	-2.0
44	CCc1cccc(C)c1NC(=O)Cn1nc(C)n2cccc2c1=O	0.2	6.6	5490	7.4	0.9	3.4	-20.5
45	COCCCNC(=O)c1c[nH]c2ccc(S(=O)(=O)N3CCc4ccccc43)cc2c1=O	6.6	3.7	4291	8.1	-4.2	13.8	-15.7
46	CCn1nnnc1NCc1ccc(Cl)cc1	2.0	1.1	3636	-6.5	9.1	11.3	-0.9
47	CCN(CC)CCOC(=O)c1ccc(N/C=C(/C#N)c2nc(-c3cccc(OC)c3)cs2)cc1	-0.5	4.2	3714	7.4	4.0	-16.9	x
48	CCOc1ccc2nc(N/C(N)=N/C(=S)Nc3cccc(C)c3)nc(C)c2c1	10.5	-9.3	11475	10.1	-14.5	-3.9	-14.8
49	Cc1c(CN(C)C(=O)c2ccc(Br)o2)cnn1C	3.5	5.2	19727*	2.5	5.8	11.8	-18.2
50	COc1ccccc1N1CCN(C2CCCN(C(=O)CN3CCCC3=O)C2)CC1 (stereo not given)	-1.4	6.4	9001	0.5	11.4	11.7	-9.0

(list continues)
nr	SMILES	Sa RN4220 lethal	Sa ugtP lethal	Bead autofluor	BJeLR lethal	Mtb hypoxia inh	Mtb hypoxia inh growth	PrP 5UTR inh
51	C(#CCN1CCOCC1)COCCCOC(c1ccccc1)c1ccccc1	0.1	3.4	10114	-4.6	7.1	9.0	-26.5
52	O=C(CSCc1nc2ccccc2[nH]1)Nc1ccccc1	8.6	7.3	8207	3.6	5.3	1.0	78.3*
53	COc1cccc(OCC(=O)Nc2c3c(nn2-c2ccc(F)cc2)CS(=O)(=O)C3)c1	0.8	0.7	5799	-22.7	0.4	-2.4	-13.9
54	O=C(NCCS(=O)(=O)NCc1ccc(F)cc1)c1ccc2c(c1)OCO2	3.0	1.8	5611	-6.7	-4.2	8.3	-11.8
55	CC(C)C(=O)Nc1cccc(NC(=O)CCN2C(=O)c3ccccc3S2(=O)=O)c1	0.3	-3.6	6552	-3.3	3.5	-4.9	-9.7
56	COc1ccc(-c2nn(-c3ccccc3)cc2C(N)=O)cc1OC	4.0	1.9	3149	6.0	-5.3	2.5	-29.8
57	CC(Oc1ccccc1F)c1ccnc2nc(N=CN(C)C)nn12 (stereo not given)	5.8	9.5	x	x	9.2	-4.3	x
58	Nc1cccc(Oc2c(F)c(F)c(Oc3cccc(N)c3)c(F)c2F)c1	6.1	-4.5	3904	-3.3	-12.3	-6.4	-17.1
59	O=C(COc1ccccc1Cl)Nc1nnc(S(=O)(=O)N2CCCCCC2)s1	3.3	21.2	4355	5.1	3.9	8.5	-21.2
60	CC(C)c1ccc(NC(=O)C(c2ccccc2)N2CC(=O)Nc3ccccc32)cc1 (stereo not given)	x	x	6457	-1.3	x	x	-23.1
61	O=C(Nc1ccc2c(c1)OCO2)N1CCN(c2cccc(C(F)(F)F)c2)CC1	-1.4	-3.9	7043	-1.3	8.2	3.6	-23.5
62	CSc1nc2cc(C)nn2c(-c2ccccc2)c1C#N	1.4	2.0	3984	0.5	7.8	7.5	-59.6
63	C=CCN1C=C2C(=O)C(C)(OC(=O)CC)C(=O)C=C2C=C1CCCC (stereo not given)	6.1	-9.5	2859	4.2	14.4	11.6	-25.6

In a second layout: six of the compounds above.
58) Nc1cccc(Oc2c(F)c(F)c(Oc3cccc(N)c3)c(F)c2F)c1
52) O=C(CSCc1nc2ccccc2[nH]1)Nc1ccccc1
61) O=C(Nc1ccc2c(c1)OCO2)N1CCN(c2cccc(C(F)(F)F)c2)CC1
57) CC(Oc1ccccc1F)c1ccnc2nc(N=CN(C)C)nn12 (stereo not given)
63) C=CCN1C=C2C(=O)C(C)(OC(=O)CC)C(=O)C=C2C=C1CCCC (stereo not given)
56) COc1ccc(-c2nn(-c3ccccc3)cc2C(N)=O)cc1OC

compound no. | 58 | 52 | 61 | 57 | 63 | 56
Sa RN4220 lethal | 6.1 | 8.6 | -1.4 | 5.8 | 6.1 | 4.0
Sa ugtP lethal | -4.5 | 7.3 | -3.9 | 9.5 | -9.5 | 1.9
Bead autofluor | 3904 | 8207 | 7043 | x | 2859 | 3149
BJeLR lethal | -3.3 | 3.6 | -1.3 | x | 4.2 | 6.0
Mtb hypoxia inh | -12.3 | 5.3 | 8.2 | 9.2 | 14.4 | -5.3
Mtb hypoxia inh growth | -6.4 | 1.0 | 3.6 | -4.3 | 11.6 | 2.5
PrP 5UTR inh | -17.1 | 78.3* | -23.5 | x | -25.6 | -29.8

High-throughput results deposited in PubChem BioAssay by several laboratories.
